# Screens from PubChem.
# NPYLR7 ag: activates Aedes aegypti NPYLR7 receptor; HEK293T NPYLR7/Galpha15, GCaMP6s calcium fluorescence; activation, % at 10 µM; 0.15% of 270,000 active; in the data active means activation above about 40%;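 further: 0% = vehicle and 100% = reference agonist at the receptor; some compounds past the cut are filed as inactive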
# NPYLR7 ag max-min: recorded beside NPYLR7 ag, whose call it bears; activation, %; measured here: Max-Min RFU normalised activation; some inactives read as strong as hits;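 span of the calcium signal over five minutes; 0% = vehicle and 100% = native peptide agonist; compound fluorescence can raise it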
# * marks the source's active call; other numbers are inactive results.
SMILES,NPYLR7 ag,NPYLR7 ag max-min
Cc1cccc(C2CCCN2CCCOC(=O)NC(N)=O)c1 (stereo not given),-1,-2
O=C(c1ccccc1OC1CCN(C2CCSCC2)CC1)N1CCCCC1,1,-3
CCOC(=O)N1CCN(C(=O)CCCn2c(=S)[nH]c3c([nH]c4ccc(OC)cc43)c2=O)CC1,-7,-7
O=C1CCN(CC(O)COCc2ccco2)c2ccc(F)cc2CN1C1CCCC1 (stereo not given),-2,8
CCn1c(CN2CCOCC2)nnc1SCC(=O)c1cn(C)c2ccccc12,-2,-3
Cc1cccc(NC(=O)c2c(NC(=O)c3ccccc3F)sc3c2CCCC3)c1,2,0
Cc1n[nH]c(C)c1S(=O)(=O)NNc1ccc(C(F)(F)F)cn1,10,7
CCNCC(=O)NC(C)(C)C,5,13
CCOC(=O)N1CCN(C(=O)COc2ccc(Cl)cc2Br)CC1,-2,-7
Cc1ccc(Cc2nsc(NCc3ccc4c(c3)OCO4)n2)cc1,-4,-7
COc1ccccc1-n1c(Cc2ccccc2)nnc1SCc1ccc(C(=O)O)cc1,3,-1
Cc1cc(C)nc(NC(=O)c2ccccc2O)n1,-7,-11
Cc1ccc(C)c(S(=O)(=O)N2CCC(Cc3ccc4c(c3)OCO4)CC2)c1,9,4
O=C(c1cccc(S(=O)(=O)N2CCCCCC2)c1)N1CCc2ccccc21,0,-3
O=C(Nc1cccnc1)c1cnc(N2CCN(Cc3ccccc3)C2=O)s1,0,-3

# Rewritten with values under each structure: entries from further up
# Values run as follows: NPYLR7 ag | NPYLR7 ag max-min
> Cc1n[nH]c(C)c1S(=O)(=O)NNc1ccc(C(F)(F)F)cn1
 : 10 | 7
> Cc1cccc(C2CCCN2CCCOC(=O)NC(N)=O)c1 (stereo not given)
 : -1 | -2
> O=C1CCN(CC(O)COCc2ccco2)c2ccc(F)cc2CN1C1CCCC1 (stereo not given)
 : -2 | 8
> CCNCC(=O)NC(C)(C)C
 : 5 | 13
> O=C(c1cccc(S(=O)(=O)N2CCCCCC2)c1)N1CCc2ccccc21
 : 0 | -3

# Additional structures
SMILES,NPYLR7 ag,NPYLR7 ag max-min
Oc1cccnc1NC(c1ccc(Cl)cc1)c1ccc2cccnc2c1O (stereo not given),11,4
C=CCC1(CC=C)CCCN1C(=O)c1oc(CC)nc1C,3,3
COc1ccc(COC(=O)c2ccc3c(c2)OCO3)cc1F,-1,-3
Cc1cc(OCC(=O)NNC(=O)c2ccc(=O)[nH]c2)ccc1Cl,5,3
Cc1cnc2n(c1=O)C(CC(=O)NCCCOC(C)C)CS2 (stereo not given),1,0
Cc1csc(C(C#N)C(=O)Nc2ccccc2)n1 (stereo not given),-2,-3
COc1ccc(OC)c(S(=O)(=O)Nc2ccccc2C(=O)NCCc2ccc(F)cc2)c1,-3,6
CC(C)CN(Cc1c(-c2ccc(F)cc2)noc1N1CCN(C)CC1)C(=O)c1ccc2c(c1)OCO2,-4,3
CCCCCC(=O)N1CCC2(CC1)SCCN2C(=O)c1ccccc1C,0,1
Cc1ocnc1C(=O)N1CCCN(CC2CC2)C(C(C)C)C1 (stereo not given),2,0
CCc1[nH]c2c(CNCc3nc4ccccc4[nH]3)cc(F)cc2c1C,7,2
C#CCN1CCCCC1C(=O)NNc1nc(-c2cccnc2)nc(C)c1C (stereo not given),4,12
Cc1ccc(CN(CCN(C)C)C(=O)c2c[nH]c(=O)cn2)s1,-4,-12
CCOC(=O)C1CCN(Cc2nc3scc(-c4ccc(C)c(C)c4)c3c(=O)[nH]2)CC1,19,22
O=C(NCc1cccc(Cl)c1)c1ccc(-n2ccnc2)c2ccoc12,-15,-16
CCc1nn2c(ncc3c(=O)n(-c4nc(SC)n[nH]4)ccc32)c1-c1ccc(Cl)cc1,-1,1
NC(=O)c1ccccc1-c1ccc2c(c1)OCO2,5,4
C#Cc1cccc(NC(=O)N(C)Cc2ccc(O)cc2)c1,-2,-1
COCCN=c1scc(-c2ccc(Br)cc2)n1N=Cc1ccc(F)cc1,5,1
Cc1nnsc1CN(C)C(=O)c1cccc(-n2cccn2)c1,23,14
COc1cc(C2=NC(=Cc3cnn(Cc4ccccc4Cl)c3)C(=O)O2)ccc1OC(F)F,1,5
Cc1noc(-c2ccccc2Cl)c1C(=O)NCCSCc1ccco1,-1,11
CCc1[nH]n(C(C)(C)C)c(=O)c1C1=C(N2CCOCC2)C(=O)N(c2ccccc2F)C1=O,7,13
O=C(C1CCCC1)N1CCC2(CC1)SCCN2C(=O)c1cccc(Cl)c1,-3,9
CCCC(=O)Nc1c(-c2ccc(C)cc2)nc2cc(C)ccn12,4,10
N=C(N)c1c(Cl)cccc1Cl,19,12
COC(=O)c1ccnc(NC(=O)Cc2ccc(C)s2)c1,4,1
CCc1ccc(NC(=O)CSc2nc(=O)n(CCCN3CCOCC3)c3c2CCC3)cc1,-1,-4
Cn1ncc2c(NCc3ccccc3)nc(NCc3ccccc3)nc21,4,0
CNC(=O)NC(=O)C(c1ccccc1)N1CCCC(C)CC1 (stereo not given),5,2
O=C(Nc1ccc(Nc2cc(-n3ccnc3)ncn2)cc1)Nc1ccccc1Cl,-13,-18
CC(Oc1ccccc1Cl)C(=O)N1CCOC(COc2cccc(C(F)(F)F)c2)C1 (stereo not given),23,15
Cc1cccnc1NC(=O)CC1CSc2nc3c(cnn3-c3ccccc3)c(=O)n21 (stereo not given),-1,-2
COCc1nc(NC(C)c2cc(OC)ccc2OC)c2cnn(C)c2n1 (stereo not given),8,5
O=C(CCN(CCc1ccccc1)c1nc(-c2ccc(F)cc2)nc2ccccc12)Nc1cccc(C(F)(F)F)c1,16,16
O=S(=O)(NCc1ccccc1)Nc1cc(Cl)ccc1-c1ccn[nH]1,0,-1
CC(C)(C)OC(=O)Nc1cc(NC(=O)c2ccc(C(N)=O)cc2)ccc1F,2,1
O=C(c1cn(CC2COc3ccccc3O2)nn1)N1CC=C(c2ccc(F)cc2)CC1 (stereo not given),16,12
CC1CN(Cc2nc3c(c(=O)n(C)c(=O)n3C)n2Cc2ccccc2)CC(C)O1 (stereo not given),-2,-2
O=C(CCN(c1nc(-c2ccco2)nc2ccccc12)C1CCCCC1)NCc1ccccc1,17,13
Cc1ccccc1C1CCCN(C(=O)CCC(C)C)C1 (stereo not given),9,-3
O=C(O)c1c[nH]c2ccc(S(=O)(=O)N3CCc4ccccc4C3)cc2c1=O,-1,-3
CN(C)CCC1CN(C(=O)c2ccc(F)cc2F)CCO1 (stereo not given),13,3
Cc1ccnc(SC(=O)N2c3ccccc3Sc3ccccc32)n1,1,0
O=C(CCC(=O)N1CCc2ccccc2C1)NCc1ccco1,-10,-15
CC(C)C[C@@H](N)C(=O)N(C)CC1(CO)CCOCC1,1,2
Cc1ccc(C(CN2CCOCC2)Nc2ncnc3sc(C)c(C)c23)cc1 (stereo not given),9,13
Cc1ccc(F)c(NC2CCCN(C(=O)c3cccs3)C2)c1 (stereo not given),-1,3
O=C(c1ncc[nH]1)N1CCC(N2CCCC(C(=O)N3CCOCC3)C2)CC1 (stereo not given),-2,-5
NC(=O)c1ccc(C(=O)N2CCOc3cc(F)ccc32)cc1,-2,-3
O=C(O)c1cc(-c2cccs2)nn1-c1ccc(Cl)cc1,16,21
CCN1CCN(c2c(CN(CCCOC)C(=O)Cc3ccc(F)cc3)c(C)nn2-c2ccccc2)CC1,-2,0
Cc1oc(S(=O)(=O)N2CCCCC2)cc1NC(=O)Nc1ccccc1,15,2
Cc1cc(=O)oc2cc(CN3CCCN(C(=O)c4ccco4)CC3)ccc12,0,0
O=C(CCCc1ccc(Cl)cc1)N1CCC(CO)(Cc2cccc(C(F)(F)F)c2)CC1,-8,-8
CCOc1ccc2nc(NC(=O)c3ccc(C)o3)sc2c1,0,-4
CN(Cc1ccc(-c2ncc[nH]2)o1)S(C)(=O)=O,19,6
CCc1nc2ccc(C(=O)NCCC(C)C)cn2c1N(C)Cc1ccc(OC)cc1,0,-11
Cc1cc(=O)n2c3ccccc3n(CC(O)CN3CCN(Cc4ccc(Cl)cc4)CC3)c2c1C#N (stereo not given),2,7
COC(=O)[C@@H]1C[C@@H](NC(=O)Cc2nc(C)sc2C)CN1C,0,-3

# Record cards, from the list above:
# Entry for CC(C)C[C@@H](N)C(=O)N(C)CC1(CO)CCOCC1 : NPYLR7 ag = 1; NPYLR7 ag max-min = 2
# Entry for O=C(O)c1cc(-c2cccs2)nn1-c1ccc(Cl)cc1 : NPYLR7 ag = 16; NPYLR7 ag max-min = 21

# Looked up above:
# Under NPYLR7 ag max-min, CC(Oc1ccccc1Cl)C(=O)N1CCOC(COc2cccc(C(F)(F)F)c2)C1 (stereo not given) shows 15
# Under NPYLR7 ag max-min, O=C(Nc1ccc(Nc2cc(-n3ccnc3)ncn2)cc1)Nc1ccccc1Cl shows -18
# Under NPYLR7 ag, O=C(CCN(c1nc(-c2ccco2)nc2ccccc12)C1CCCCC1)NCc1ccccc1 shows 17
# Under NPYLR7 ag, CCc1ccc(NC(=O)CSc2nc(=O)n(CCCN3CCOCC3)c3c2CCC3)cc1 shows -1

# (next part)
SMILES,NPYLR7 ag,NPYLR7 ag max-min
Nc1c(Br)cc(Br)cc1[N+](=O)[O-],6,5
COc1ccc2cc(C3CN(Cc4nc(C)cc(C)n4)CCO3)ccc2c1 (stereo not given),3,2
COc1cn(CC(=O)Nc2cccc3ccccc23)c(CN2CCCCC2)cc1=O,-2,-1
Cc1ccccc1C1Nc2ccccc2S(=O)(=O)N1 (stereo not given),27,12
CCSc1nnc(NC(=O)C2CC2c2ccccc2)s1 (stereo not given),-5,-8
O=S(=O)(NCC1CCCN(Cc2ccccn2)C1)c1cccc2cccnc12 (stereo not given),1,-2
OCCC1CN(Cc2cccn2-c2cccnc2)CCN1Cc1cccs1 (stereo not given),15,2
O=C1/C(=C/c2ccc([N+](=O)[O-])cc2)C=C(c2ccccc2)N1c1ccc(Br)cc1,1,11
NS(=O)(=O)c1cccc(NC(=O)CSc2nnnn2C2CCCC2)c1,5,5
Cc1c(NC(=S)NC(=O)c2ccccc2F)c(=O)n(-c2ccccc2)n1C,10,13
CCC(C)N(Cc1ccc(OS(=O)(=O)c2cccc(C(F)(F)F)c2)cc1)C(=O)Nc1ccc(C)c(C)c1 (stereo not given),9,15
CCOC(=O)c1nc2cc(Cl)c(Cl)cc2nc1N1CCCN(C(=O)c2ccc([N+](=O)[O-])o2)CC1,5,2
O=c1[nH]nc(-c2ccccc2)c2sc(N3CCOCC3)nc12,-4,-3
Cc1ccc(CN2CCN(Cc3ccccc3F)C(CCO)C2)s1 (stereo not given),-7,-9
O=C(Nc1ccc2c(c1)OCO2)c1cnn2c1NC(c1ccco1)CC2C(F)(F)F (stereo not given),-4,-9

# In a second layout: entries from further up
SMILES	NPYLR7 ag	NPYLR7 ag max-min
O=C1/C(=C/c2ccc([N+](=O)[O-])cc2)C=C(c2ccccc2)N1c1ccc(Br)cc1	1	11
NS(=O)(=O)c1cccc(NC(=O)CSc2nnnn2C2CCCC2)c1	5	5
Cc1c(NC(=S)NC(=O)c2ccccc2F)c(=O)n(-c2ccccc2)n1C	10	13
CCC(C)N(Cc1ccc(OS(=O)(=O)c2cccc(C(F)(F)F)c2)cc1)C(=O)Nc1ccc(C)c(C)c1 (stereo not given)	9	15
CCOC(=O)c1nc2cc(Cl)c(Cl)cc2nc1N1CCCN(C(=O)c2ccc([N+](=O)[O-])o2)CC1	5	2

# Later entries:
SMILES,NPYLR7 ag,NPYLR7 ag max-min
O=C(CN1CN(c2ccccc2)C2(CCN(C(=O)Nc3ccc(F)c(F)c3)CC2)C1=O)NCc1ccc2c(c1)OCO2,10,10
COc1cccc(N2CC(C(=O)Nc3cc(C)nn3-c3nc(-c4ccccc4)cs3)CC2=O)c1 (stereo not given),-5,-11
CN(CC(=O)OC(C)(C)C)C(=O)c1ccccc1Br,10,7
CC(=O)c1ccc[n+](C(=O)Cc2ccccc2)c1,0,0
CC(C)N1CC(C(=O)Nc2ccccc2-c2cccs2)CC1=O (stereo not given),2,0
COc1cccc(C(O)CSc2nncn2C(C)C)c1 (stereo not given),10,5
COc1cccc(CN(C(=O)c2cc(NC(C)=O)ccc2Cl)C2CC2)c1,23,11
COc1cc(-c2[nH]ncc2CN2CCCC2c2ccccn2)cc(OC)c1OC (stereo not given),8,6
CC1=CC(=C2C(=O)N(c3ccccc3)N=C2C)C=C(C)N1Cc1ccco1,-4,-7
CNCc1cc(-c2ccc(F)cc2Cl)ccc1OC,-1,0
O=C(c1ccc(Cl)c(S(=O)(=O)Nc2ccccc2Cl)c1)N1CCc2sccc2C1,0,0
CC(C)C1CN(C(=O)CN2CCCCC2=O)CCS1 (stereo not given),5,2
O=C(CNC(=O)c1ccccc1)NCC(=O)N1CCOC(c2ccccc2)C1 (stereo not given),-4,-4
Cc1noc(CCNS(=O)(=O)c2cccc(F)c2C)n1,-1,-4
COc1cc(C(=O)Nc2cccc(-c3nc4cc(Cl)ccc4o3)c2)cc(OC)c1OC,0,9
CC(C)(C)C(=O)N1CCC(NS(=O)(=O)c2cccs2)CC1,8,7
N#CC1C(=N)Oc2cc(O)ccc2C1C1CCCCC1 (stereo not given),2,1
COCCCN(CC(=O)N(Cc1cccn1Cc1ccccc1Cl)CC(C)C)C(=O)c1cc(C(F)(F)F)cc(C(F)(F)F)c1,-2,11
Cc1c(CCCl)c(Cl)n2c(nc3ccccc32)c1C#N,8,2
O=C(c1cn2ccsc2n1)N1CCc2c(nc(-c3ccccn3)[nH]c2=O)C1,3,0
Cc1ccc(C)c(NC2=NCCC2)c1,2,7
CCc1ocnc1C(=O)N1CCCC(c2[nH]ncc2-c2ccc(C)cc2)C1 (stereo not given),2,3
COc1ccc(CCCC(=O)N2CCO[C@@H]3CCCC[C@H]32)cc1,4,-7
CC(C)NC(=O)[C@@H]1C[C@@H](N)CN1C(=O)c1sccc1Cl,3,2
COc1ccc(NS(=O)(=O)c2ccc(N/N=C3\CCCCC3C)c([N+](=O)[O-])c2)cc1 (stereo not given),2,-2
C=CCCC(O)CN(CC=C)Cc1nc2sc(C(C)C)cc2c(=O)[nH]1 (stereo not given),-8,12
Cc1ccccc1OCc1nc(CN(C(=O)C2CCCC2)C(C)C)cs1,16,12
COCc1cc(CN2CCC3(CC2)C(=O)NCCN3C)ccc1OC,9,8
CCOc1ccc(C(=O)C2CC(=O)Nc3[nH]ncc32)cc1OCC (stereo not given),11,15
CCN(CC)C(C(=O)NC(C)C(C)(C)CN(C)C)c1ccccc1 (stereo not given),4,3

# The list is partial; count on the stated rates, not on these rows.
